From PubChem
Bead autofluor – compound fluorescence in toxin protease inhibitor counterscreen. AID 624483. hit rate 3.1% among 360,000. compound autofluorescence counterscreen, microsphere flow cytometry; hits give high values. fluorescence intensity (concentration not given with the values);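 active = at least 3 SD above the mean of all compounds, about 16000 in these data; inconclusive = too few beads counted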;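 note: 100 nL of 1 mM stock went into each well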
Sa ugtP lethal – kills S. aureus RN4220 lacking UgtP. S. aureus RN4220 ugtP deletion, OD600 growth, 16 h; some inactives read as strong as hits. growth inhibition, % (test concentration not listed). hit rate 0.54% among 330,000. AID 1259309;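 active = z-score under -3 and OD600 up to 0.15 on both plates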;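 note: plate controls were untreated wells for no effect and antibiotic for full effect; wells of about 80 µL received 100 nL stock; the first replicate is given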
Mtb hypoxia inh – inhibitors of hypoxia-regulated fluorescent reporter in Mycobacterium tuberculosis. M. tuberculosis hypoxia-regulated fluorescent reporter, fluorescence. fluorescence inhibition, % (test concentration not listed). hit rate 0.1% among 300,000. AID 1159583;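 active = 35 to 45% if threefold the growth effect, above 45% if 1.5-fold the growth effect; inactive = the rest, general growth blockers included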;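 note: wells of about 50 µL received 100 nL stock; 0% = vehicle wells and 100% = reference inhibitor wells; whole bacteria with a GFP reporter of the hypoxia response; strong numbers were not always called active; many hits fall short of the cut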
PrP UTR inh – inhibition of PrP 5' UTR reporter expression. cell-based PrP 5' UTR mRNA reporter, plate reader. inhibition, % (concentration not given with the values). hit rate 0.35% among 340,000;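 active = every replicate at 50% or more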;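 note: 0 = median of the neutral control wells; tested in H4 reporter cells; numbers are from one replicate; inactives centre near -14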
BJeLR lethal – kills HRASV12-expressing BJeLR cells; inhibition, % (concentration not given with the values); hit rate 0.17% among 300,000; BJeLR (HRASV12) viability, CellTiter-Glo ATP luminescence, 48 h; reference of the scale not given here; AID 1554;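 active = replicate mean above 50%; inconclusive = above 50% but judged a plate artefact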;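 note: 50 nL library stock added to about 25 µL; numbers are from one replicate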
RN4220 kill – kills Staphylococcus aureus RN4220. S. aureus RN4220 growth, OD600, 16 h. hit rate 0.33% among 330,000. AID 1259311. inhibition, % (test concentration not listed);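 active = z-score of -3 or lower and OD600 up to 0.18 on both plates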;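 note: plate controls were untreated cells for no effect and reference antibiotic for full effect; stock transfer was 100 nL into about 80 µL; one replicate is shown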
Mtb hypoxia inh growth – second read-out of Mtb hypoxia inh, no call of its own (marks repeat the call); growth inhibition, %; measured here: M. tuberculosis growth (absorbance);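 0% = vehicle and 100% = reference antibiotic; read after six days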
* hit, by the source's call; ? = inconclusive; / = no result given. Not a hit list, and some 4% of all compounds hit somewhere here.

canonical_smiles,Bead autofluor,Sa ugtP lethal,Mtb hypoxia inh,Mtb hypoxia inh growth,PrP UTR inh,BJeLR lethal,RN4220 kill
CC1=C(C(=O)OCC2CCCCC2)C(c2ccc(O)cc2)NC(=O)N1 (configuration not stated),3373,-4,17,10,-17,3,0.5
COC(=O)COc1cccc(NS(=O)(=O)c2ccc(NC(C)=O)cc2)c1,7763,7,3,1,-34,11,2.5
O=C(NCCN1CCOCC1)C12CC3CC(C1)CC(c1ccccc1)(C3)C2,2038,1,-2,2,-1,-1,5.9
CCOc1nc2c(c(=O)n(C)c(=O)n2C)n1Cc1ccccc1Cl,5432,3,15,4,-28,-2,2.8
COc1ccc(N2C(=O)CC(NNC(=O)c3cc(C)oc3C)C2=O)cc1 (configuration not stated),4613,14,4,12,-21,5,6.5
O=C(NCCCN1CCOCC1)/C(=C/c1ccco1)NC(=O)c1ccccc1,3697,5,1,5,-21,4,1.5
Cc1ccc(OCc2ccc(C(=O)NN)o2)c([N+](=O)[O-])c1,4140,-1,7,3,-16,3,6.1
Cc1nc2ccccc2c(=O)n1N=Cc1ccc(O)cc1O,/,3,-7,3,/,/,4.5
O=C(NCCCn1ccnc1)c1cc(-c2cccnc2)nc2ccc(Br)cc12,4431,-67,6,4,-10,-4,6.9
CC(C)OCCCn1c(SCC(=O)Nc2ccccc2C(F)(F)F)nc2nccnc2c1=O,5418,0,7,1,-15,-4,4.3
Cc1cccc(NC(=O)c2ccc3[nH]c(=O)c(=O)[nH]c3c2)n1,5811,-2,0,7,-2,0,-2.0
Cc1ccc(SCC(=O)NCCCN2CCOCC2)cc1,4333,9,/,/,-15,-8,-0.7
Cc1occc1C(=O)N1N=C(C2CC2)CC1(O)C(F)(F)F (configuration not stated),2414,21,1,1,4,2,25
COc1ccc(CCNC(=O)c2ccc(CS(=O)Cc3ccc(Cl)cc3)o2)cc1OC (configuration not stated),4843,9,8,2,-20,5,2.3
COc1ccc(C2NCCC3(O)CCCCC23)c(OC)c1OC (configuration not stated),5737,1,2,6,-2,0,0.6
O=S1(=O)C=C(SCCN2CCCCC2)c2ccccc21,3169,-1,-11,-6,-17,0,2.1
COc1cc2ccccc2cc1C(=O)Nc1ccc(C)cc1,4265,-11,1,-11,-82,14,-2.8
CCc1nn(C(C)C(=O)N2CCN(c3ccc(OC)cc3)CC2)c(=O)c2cc3occc3n12 (configuration not stated),4185,11,3,-12,-12,19,2.6
COc1cc(CN2CCNC(=O)C2CC(=O)N(C)CCN2CCOCC2)cc(OC)c1 (configuration not stated),5384,2,-6,1,-6,6,-0.4
CC(=O)N1CCN(Cc2nc3cc(NC(=O)c4ccc(Cl)cc4)ccc3n2C)CC1,8404,5,1,-1,/,/,0.7
CCc1nnc(NC(=O)CCNC(=O)c2ccco2)s1,6665,-1,-7,-3,-18,-9,-3.6
Cc1nc2nc(SCC(N)=O)[nH]c2cc1Br,4210,6,/,/,-6,0,1.2
CCC(C)(C(=O)NC1CCCCC1)N(C(=O)c1ccccn1)c1ccc(C)cc1 (configuration not stated),3738,-9,16,6,-21,-5,0.9
CC(C)CCNC(=S)Nc1ccc2nc3n(c(=O)c2c1)CCCCC3,2145,4,8,13,-100,12,4.1
O=C(Nc1ccc(N2CCN(C(=O)c3ccccc3)CC2)c(Cl)c1)c1cccnc1,3745,11,13,11,-14,-6,3.3
O=C(c1ccc(CSc2nc3ccncc3[nH]2)cc1)N1CCCCC1,5496,9,11,12,-8,3,1.3
OC(COc1ccc(OCc2ccccc2)cc1)CN1CCOCC1 (configuration not stated),4111,0,3,5,-5,4,5.4
CSc1nc(C)c(C(=O)Nc2ccccc2)c(C)c1C#N,10980,16,6,6,-15,10,-0.7
C=CC[C@H](CC(=O)NCCO)C(=O)NC[C@@H](OC(=O)[C@@H](CC=C)CC(=O)OC(C)(C)C)c1ccccc1,2645,8,-1,-6,-8,/,1.9
CCOc1cc2[nH]c(=S)n(CCN3CCCCC3CC)c(=O)c2cc1OCC (configuration not stated),6867,-6,-5,-2,-13,11,-4.2
COCCNC(=O)c1ccccc1NC(=O)Nc1ccccc1,4294,18,8,10,-15,-1,6.0
COc1ccc(CC(=O)N2CCNC2=O)cc1,19689*,1,6,6,-18,-1,0.4
Cc1cccc(-n2ccc(=O)c(C(=O)Nc3ccc(S(=O)(=O)Nc4nccc(C)n4)cc3)n2)c1,5936,10,/,/,-19,-2,1.8
Cc1cccc(NC(=O)Cn2nnc3ccccc32)c1,4761,4,1,5,-52,-3,4.9
O=C(COc1ccc2c(c1)OCO2)Nc1ccc(Cl)cn1,5515,10,3,7,-36,-13,3.9
Cc1ccc(C=NNC(=O)c2nnn(-c3nonc3N)c2CN(C)C)s1,/,12,2,-12,/,/,4.7
CC1(C)Cc2c(sc3nc(-c4ccccc4Cl)n(N)c(=O)c23)CO1,3290,-5,10,3,-19,16,-15
COc1ccc(C=NNC(=O)C(Cc2c[nH]c3ccccc23)NC(=O)OCC(C)C)cc1[N+](=O)[O-] (configuration not stated),/,-3,4,0,/,/,0.5
O=C(NN=Cc1cc(Br)ccc1O)C(c1ccncc1)N1CCOCC1 (configuration not stated),/,5,-1,-4,/,/,6.0
Cc1nn(C)c(C)c1S(=O)(=O)N1CCCC(C(=O)NC2CCCCC2)C1 (configuration not stated),4126,2,/,/,-10,-4,1.0
Cc1ccc(-c2cc(C(=O)OCC(=O)NC3CC3)c3ccccc3n2)cc1,5035,2,1,5,-13,/,-2.0
CC(=NO)C(=O)NCCCn1ccnc1,/,-3,-8,-7,/,/,0.1
CC(=O)c1ccc(N2CCN(C(=O)c3noc4c3CSc3ccccc3-4)CC2)cc1,5082,2,-1,-6,-32,9,4.4
CC[C@H]1OC(=O)[C@H](C)[C@@H](O[C@H]2C[C@@](C)(OC)[C@@H](O)[C@H](C)O2)[C@H](C)[C@@H](O[C@@H]2O[C@H](C)C[C@H](N(C)C)[C@H]2O)[C@](C)(O)C[C@@H](C)CN(C)[C@H](C)[C@@H](O)[C@]1(C)O,4192,/,/,/,-4,7,/
CCN(CC(=O)Nc1ccccc1C(F)(F)F)C(=O)CSCC(=O)Nc1cc(C)on1,5045,3,2,-6,9,1,1.9
COc1ccc(C2=CC(=O)CC(C)(C)C2)cc1OC,2710,7,14,10,-4,/,5.4
O=C(Nc1ccc2nc3n(c(=O)c2c1)CCCCC3)C(=O)N1CCN(c2ccc(F)cc2)CC1,5153,-6,-12,-11,-10,-9,-6.8
O=C(OCc1nc2ccsc2c(=O)[nH]1)c1ccc(Cl)nc1,5924,-3,2,2,-9,-4,0.5
C[C@H](NC(=O)N1CCn2c1nc1ccccc12)C(=O)NCCc1ccccc1,6022,6,7,2,-16,5,8.1
O=c1cc(CSc2ccc(Cl)cc2)[nH]c2[nH]n(-c3ccccc3)c(=O)c12,5181,13,-2,8,-9,-4,5.3
CCCCCCCCCc1nc(N)n[nH]1,3202,50,8,14,-3,-2,29
O=C(c1ccc(F)cc1)N1CCCCC(Sc2nnc3ccccn23)C1=O (configuration not stated),5822,-5,2,1,-20,-2,1.4
CCn1c(SCc2nc3ccccc3c(=O)[nH]2)nc2ccccc2c1=O,2551,5,10,7,-3,3,6.6
Cc1nnc(SCC(=O)Nc2nccs2)n1C(C)C,6055,1,0,0,-11,6,4.8
Cc1cc(SCC#N)n2nc(C)c(-c3ccccc3)c2n1,4507,2,8,3,5,-4,4.9
O=C(CNC(=O)c1ccc(Br)o1)NCC(=O)OCc1ccccc1,3804,3,-2,-4,-3,-3,-0.3
CC(C)Cn1cnc2c(Sc3c([N+](=O)[O-])ncn3C)nc(N)nc21,4158,2,8,9,-9,/,1.7
CCSc1nnc(SCC(=O)Nc2cc(C)on2)s1,4530,9,2,1,-16,/,3.9
O=c1ccc(S(=O)(=O)N2CCCC2)cn1Cc1ccc(Cl)cc1Cl,8917,11,4,2,-17,/,5.5
COc1ccc(S(=O)(=O)N2CCN(CC(=O)N3CCOCC3)CC2)cc1OC,3487,0,2,13,/,/,0.8

Look-ups from above.
Cc1nnc(SCC(=O)Nc2nccs2)n1C(C)C | RN4220 kill = 4.8
C[C@H](NC(=O)N1CCn2c1nc1ccccc12)C(=O)NCCc1ccccc1 | Mtb hypoxia inh growth = 2

Following part
canonical_smiles,Bead autofluor,Sa ugtP lethal,Mtb hypoxia inh,Mtb hypoxia inh growth,PrP UTR inh,BJeLR lethal,RN4220 kill
CCc1c(C(=O)NCc2ccc3c(c2)OCO3)[nH]c(C)c1C(C)=O,17026*,2,15,9,-21,6,6.8
O=C(Nc1ccc(O)cc1C(=O)O)c1cccs1,4002,5,2,7,-26,-13,5.3
COc1ccc(Cc2noc(CN3CCC(c4ccncc4)CC3)n2)cc1OC,3578,4,10,12,-23,-2,3.7
COc1ccc(C2CC(c3c(-c4ccccc4)c4cc(Cl)ccc4[nH]c3=O)=NN2C(=O)CCC(=O)O)cc1 (configuration not stated),2810,-19,-15,-1,-21,1,-6.1
Cc1cc(C(N)=O)nn1-c1c(Cl)cc(Cl)cc1Cl,4621,5,4,5,-21,-1,3.3
Cc1ccc(N2CCN(C(=O)c3ccccc3F)CC2)c(C)c1,5463,-1,7,14,-6,-6,-7.6
CCOC(=O)Cc1csc(NC(=O)CC)n1,5311,13,7,3,-11,3,6.2
O=C(CCN1CCN(S(=O)(=O)c2ccc(Cl)cc2)CC1)Nc1ccccc1F,4409,7,9,2,-16,0,0.4
COC(=O)c1ccc(C2C(C(C)=O)=C(O)C(=O)N2CCO)cc1 (configuration not stated),?,1,-5,4,0,-14,5.2
COc1cc(C(c2sc3nc(C)nn3c2O)N2CCC3(CC2)OCCO3)cc(OC)c1OC (configuration not stated),3478,3,15,9,-21,/,0.2
CC(C)CNC(=O)/C=C/C(=O)O,2642,2,-6,-7,-20,10,2.1
COC(=O)C(=N/Nc1ccccc1C(=O)OC)/C(C)=N/O,4604,/,/,/,-2,5,/
O=Cc1c(NCc2ccco2)nc2ccccn2c1=O,4385,2,19,23,-26,-11,7.9
Cc1ccc(-c2noc(CN3CCCCC3)n2)cc1,4237,14,24,26,-72,8,5.1
Cc1cccc(C)c1NC(=O)C(=O)NCCOc1ccc(Cl)cc1,3484,3,5,1,-16,-9,-0.3
COc1cc(C(=O)OCC(=O)N(C)C)cc(NC(=O)c2ccco2)c1OC,8323,0,-4,-4,-20,4,2.4
CSc1ncc(Cl)c(C(=O)Nc2ccc(NC(C)=O)cc2)n1,3826,13,6,-5,-8,4,-0.4
CN(C)CCCOC(=O)C1c2ccccc2Oc2ccccc21,4217,1,/,/,-14,-2,0.5
CCOC(=O)c1[nH]c(C)c(C(=O)Nc2ccccc2C)c1C,6221,6,/,/,-9,4,2.7
CCc1cccc(CC)c1NC(=O)CO/N=C(\N)CC(=O)NC1CCCCC1,5264,1,7,17,-23,-3,2.6
CCN(CC)C(=O)CC(c1ccc(F)cc1)c1ccco1 (configuration not stated),6390,-8,/,/,-15,7,-8.9
O=C(O)c1cccc(Cn2c(Cl)c(/C=N/NC(=O)c3ccccc3Cl)sc2=O)c1,3385,/,/,/,-46,-3,/
C=CCN(CC=C)C(=O)c1cc2ccccc2c(=O)o1,7559,0,0,0,-24,2,2.0
COc1ccc(N2CCN(CCNC(=O)c3ccc(NC(=O)C4CCCO4)cc3)CC2)cc1 (configuration not stated),3023,6,6,3,-24,1,4.0
C#CCSc1nnc(CNS(=O)(=O)c2ccc(Br)cc2)n1C,5855,2,-9,3,-1,12,0.0
NC(=O)NC(=O)CSc1nc2sc(-c3ccccc3)cc2c(=O)n1-c1ccccc1,4114,1,8,1,9,-20,4.2

Already shown: entries from further up.
canonical_smiles,Bead autofluor,Sa ugtP lethal,Mtb hypoxia inh,Mtb hypoxia inh growth,PrP UTR inh,BJeLR lethal,RN4220 kill
CC1=C(C(=O)OCC2CCCCC2)C(c2ccc(O)cc2)NC(=O)N1 (configuration not stated),3373,-4,17,10,-17,3,0.5
COC(=O)COc1cccc(NS(=O)(=O)c2ccc(NC(C)=O)cc2)c1,7763,7,3,1,-34,11,2.5
